Screening data (PubChem BioAssay)
PKD1 inh: blocks activity of human protein kinase D1; inhibition, %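 (about 10 µM by stock and volumes)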; PKD1 kinase fluorescence polarization assay; 200,000 tested, 0.056% active; Q15139;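 active = inhibition of 50% or more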;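 note: controls were vehicle for no effect and a reference inhibitor for full effect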
Target sequence (Q15139 whole entry, looked up): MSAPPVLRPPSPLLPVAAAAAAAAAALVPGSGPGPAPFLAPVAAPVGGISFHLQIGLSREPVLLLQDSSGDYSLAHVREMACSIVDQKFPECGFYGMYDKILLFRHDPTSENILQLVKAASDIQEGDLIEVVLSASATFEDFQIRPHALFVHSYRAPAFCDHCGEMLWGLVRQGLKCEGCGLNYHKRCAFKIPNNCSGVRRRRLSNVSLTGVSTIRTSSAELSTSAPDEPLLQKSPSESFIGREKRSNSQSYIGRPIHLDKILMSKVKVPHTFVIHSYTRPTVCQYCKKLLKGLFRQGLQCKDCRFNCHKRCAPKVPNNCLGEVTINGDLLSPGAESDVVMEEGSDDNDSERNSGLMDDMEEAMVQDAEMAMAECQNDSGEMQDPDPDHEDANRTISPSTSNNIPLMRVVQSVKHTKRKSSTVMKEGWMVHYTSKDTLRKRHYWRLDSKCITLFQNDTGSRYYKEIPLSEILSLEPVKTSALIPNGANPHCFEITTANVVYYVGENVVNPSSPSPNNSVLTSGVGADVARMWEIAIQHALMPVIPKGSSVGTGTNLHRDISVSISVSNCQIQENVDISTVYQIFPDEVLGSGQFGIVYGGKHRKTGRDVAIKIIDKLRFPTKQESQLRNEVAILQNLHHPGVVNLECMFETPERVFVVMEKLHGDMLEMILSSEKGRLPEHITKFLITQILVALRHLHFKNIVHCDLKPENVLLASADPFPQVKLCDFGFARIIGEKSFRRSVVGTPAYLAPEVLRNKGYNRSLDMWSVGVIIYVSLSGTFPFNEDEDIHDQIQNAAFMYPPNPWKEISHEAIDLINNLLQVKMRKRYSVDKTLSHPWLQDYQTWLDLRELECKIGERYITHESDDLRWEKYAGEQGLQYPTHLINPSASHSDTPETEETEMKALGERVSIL
HSV augment: HSV replication enhancement; HSV replication augmentation in cells, fold increase; maximum fold increase; 220,000 tested, 0.005% active; AID 1956;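 active = peak rise of 1.5-fold or more in the series; tested in PC3 cells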;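 note: first round at 10 µM; read as green reporter fluorescence; hits show the peak of a series up to 25 µM; 1 = signal of infected wells without compound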
GALR2 agonist: GALR2 (human) receptor agonism. O43603. GALR2-expressing cells, agonist activation read-out. activation, %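 (tested at 5 µM)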. 140,000 tested, 0.48% active;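 active = above mean plus 3 SD of all compounds, about 5% in these data, not always enough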;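 note: 0% = vehicle buffer wells and 100% = reference agonist at full effect; tested in CHO reporter cells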
RGS16-Gao: regulators of human RGS16-Galphao interaction; O15492+P09471; binding response (% of control), % at 10 µM; 220,000 tested, 0.38% active; bead-based flow cytometry RGS16-Galphao binding, fluorescence; actives lie on both sides;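 active = below 25% or above 175%, edge rows of some plates excepted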;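 note: Galphao activated by GDP with aluminum fluoride before binding; 100% = wells without compound and 0% = beads without RGS; some results beyond the cut were filed as inactive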
Insulin prom inh: TRM-6 insulin promoter activity inhibition | TRM-6 cells (human fetal islet line), insulin promoter-eGFP reporter, imaging; reporter expression induced with tamoxifen | inhibition, % at 2 µM | 130,000 tested, 0.9% active | AID 1273;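 active = inhibition above the mean plus 3 SD, with well images judged a real hit on visual review, cut at about 60% in these data, passing the limit was not always enough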
Insulin prom inh cell count: second read-out of Insulin prom inh, no call of its own (marks repeat the call); normalized cell count, %; measured here: cell count, toxicity; reference of the scale not given here;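 cells exposed to compound for 48 h; stained nuclei by imaging scaled within each plate; lower means fewer cells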
HSV augment primary fold: further read-out of HSV augment, marked with its call; fold increase; compound at 10 µM; measured here: primary screen fold increase 10 uM; tested in PC3 cells;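 GFP signal in the first replicate; 1 = infected wells without compound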
Active calls of the source: *; i = inactive; nt = no result given.

| SMILES | PKD1 inh | HSV augment | HSV augment primary fold | GALR2 agonist | RGS16-Gao | Insulin prom inh | Insulin prom inh cell count |
| --- | --- | --- | --- | --- | --- | --- | --- |
| CCc1cc(CNC(=O)CC2C(=O)NCCN2CC2CCCCC2)on1 (stereo not drawn) | 0.5 | i | 1.05 | nt | 103.6 | nt | nt |
| O=C1NC(=O)C(=C2CCCCCC2)S1 | -7.0 | i | 0.93 | -0.3 | 103.2 | 25.8 | 76.3 |
| COc1cccc(-n2nnnc2SCC(=O)NCc2ccco2)c1 | -2.5 | i | 0.91 | 1.2 | 78.4 | 26.3 | 111.4 |
| COc1cccc(N2C(=O)C3CCCN3C2c2ccc(F)cc2)c1 (stereo not drawn) | -7.7 | i | 1.06 | -1.9 | 105.3 | nt | nt |
| COC(=O)c1cc(Oc2ccc(C(=O)OC)cc2N)cc(C(=O)OC)c1 | 9.6 | i | 0.76 | -1.7 | 94.5 | 2.8 | 97.9 |
| CCOC(=O)C(=CNc1ccc2c(c1)c1ccccc1n2CC)C(=O)OCC | nt | i | 0.84 | nt | 104.2 | nt | nt |
| CCCCNc1cc(NC(C)=O)cc2cc(OC)c(OC)cc12 | 3.6 | i | 0.82 | -2.3 | 100.3 | nt | nt |
| COc1cccc(CN2CCN(C(=S)NCc3ccc(Cl)cc3)CC2)c1 | -1.3 | i | 0.97 | nt | 112.7 | nt | nt |
| CN(C)c1ccc(-c2noc(C3CCN(S(=O)(=O)c4cccc(C(=O)O)c4)CC3)n2)cc1 | -11.9 | i | 0.77 | -2.1 | 96.8 | 2.9 | 142.7 |
| CCOC(=O)c1c(N2C(=O)CC(Sc3ccccc3C(=O)O)C2=O)sc(C)c1C (stereo not drawn) | nt | i | 0.91 | nt | 109.1 | nt | nt |
| CCN(CC(=O)Nc1cc(Cl)ccc1C)C(=O)COc1ccccc1F | -6.3 | nt | nt | nt | 103.1 | -42.9 | 85.8 |
| O=C(OCc1ccc([N+](=O)[O-])cc1)C1CCN(S(=O)(=O)c2ccccc2)CC1 | 0.9 | i | 1 | -0.9 | 101.5 | -13.2 | 99.1 |
| Oc1c(Br)cc(Br)cc1C=NCc1ccc(F)cc1 | -1.5 | i | 1.09 | nt | 95.4 | nt | nt |
| CCc1nc(C)cn1S(=O)(=O)c1cc(Br)ccc1OC | -7.8 | i | 1.08 | -1.3 | 99.7 | nt | nt |
| CCOC(=O)C1CCCN(c2ncnc3c2cnn3-c2ccc(Cl)cc2)C1 (stereo not drawn) | 1.8 | i | 0.97 | -1.0 | 105.2 | 30.0 | 60.3 |
| Cc1ccc(-c2csc(C(C#N)=C3CCCC3)n2)cc1 | -6.5 | i | 1 | -1.1 | 98.8 | 75.0* | 47.1* |
| COc1ccc(/C=C/C(=O)Nc2cc(C(F)(F)F)ccc2Cl)cc1OC | -10.6 | i | 0.87 | -0.8 | 101.8 | nt | nt |
| CSc1nc(N2CCOCC2)cc(N2CCOCC2)n1 | -10.4 | i | 0.98 | nt | 111.5 | -63.6 | 81.6 |
| CC(C)Cc1nc2sc3c(=O)[nH]cnc3c2c2c1CCC2 | -10.5 | i | 1.12 | 0.0 | 99.0 | nt | nt |
| O=C(NCc1ccc2c(c1)OCO2)Nc1ccc2ccccc2c1 | nt | i | 1 | nt | 97.5 | nt | nt |
| COc1ccc(CNC(=O)C2CC=CCC2C(=O)O)cc1OC (stereo not drawn) | -6.9 | i | 1.02 | -2.1 | 80.6 | 30.8 | 126.8 |
| Cc1ccc(NC(=O)CSc2nnc(N)s2)c([N+](=O)[O-])c1 | -0.7 | i | 1.09 | nt | 80.9 | 0.0 | 107.9 |
| N#CCCn1cc(C(=O)Nc2ccc([N+](=O)[O-])cc2)c(-c2cccs2)n1 | -2.7 | i | 0.79 | -2.0 | 100.2 | 42.9 | 103.3 |
| COc1ccc(COC(=O)NNC(=O)c2ccccc2Cl)cc1 | -2.0 | i | 1.05 | -2.6 | 99.8 | -11.4 | 71.0 |
| O=c1c2ccccc2cnn1Cc1n[nH]c(=S)n1-c1ccccc1F | nt | i | 1.02 | nt | 97.1 | nt | nt |
| CCOC(=O)CNC(=O)CSc1nnnn1-c1cc(C)ccc1C | -2.8 | i | 0.97 | -1.3 | 113.1 | 32.1 | 87.1 |
| c1ccc(-c2csc3ncn4cnnc4c23)cc1 | -1.5 | i | 0.86 | -1.4 | 96.3 | 15.6 | 103.3 |
| CCNC(=O)NC(=O)C(C)OC(=O)CCS(=O)(=O)c1ccc(C)cc1 (stereo not drawn) | -5.5 | i | 0.94 | nt | 126.0 | -5.0 | 123.3 |
| CCOC(=O)N1CCC(NC(=O)c2cccnc2SC)CC1 | -3.2 | i | 0.91 | -0.2 | nt | 24.2 | 74.3 |
| CC(=O)Nc1cccc(-c2nnc3c4ccccc4c(C)nn23)c1 | -2.8 | i | 0.8 | nt | 111.2 | -40.0 | 135.0 |

3 records drawn at random from those above, as already listed:
| SMILES | PKD1 inh | HSV augment | HSV augment primary fold | GALR2 agonist | RGS16-Gao | Insulin prom inh | Insulin prom inh cell count |
| --- | --- | --- | --- | --- | --- | --- | --- |
| CCOC(=O)CNC(=O)CSc1nnnn1-c1cc(C)ccc1C | -2.8 | i | 0.97 | -1.3 | 113.1 | 32.1 | 87.1 |
| CCOC(=O)C(=CNc1ccc2c(c1)c1ccccc1n2CC)C(=O)OCC | nt | i | 0.84 | nt | 104.2 | nt | nt |
| Cc1ccc(NC(=O)CSc2nnc(N)s2)c([N+](=O)[O-])c1 | -0.7 | i | 1.09 | nt | 80.9 | 0.0 | 107.9 |

Next part.
SMILES | PKD1 inh | HSV augment | HSV augment primary fold | GALR2 agonist | RGS16-Gao | Insulin prom inh | Insulin prom inh cell count
Cc1ccc2nc(C(=O)N3CCc4c([nH]c5ccccc45)C3c3ccccn3)cn2c1 (stereo not drawn) | -6.3 | i | 0.87 | nt | 102.3 | -7.1 | 118.1
CCOC(=O)C1C(=O)NC(c2ccccc2)=NC1c1ccc(C(C)C)cc1 (stereo not drawn) | 19.4 | i | 0.91 | -3.1 | 100.0 | 44.8 | 149.2
N#Cc1ccc(/C=C/C(=O)c2ccccc2)cc1 | nt | i | 0.69 | nt | 96.0 | nt | nt
O=c1cc(CN2CCN(S(=O)(=O)/C=C/c3ccccc3)CC2)c2ccc(O)cc2o1 | -0.7 | i | 1.03 | 1.2 | 82.3 | -36.7 | 93.8
COC(=O)c1ccc(C(=O)Nc2ccc3nc(-c4cccnc4)[nH]c3c2)cc1 | -4.8 | i | 0.91 | 0.6 | 102.0 | -7.9 | 91.4
Cc1cccc(-c2nc(CSCC(=O)NCc3cccs3)c(C)o2)c1 | -10.2 | i | 0.92 | -3.4 | 99.3 | -3.6 | 62.5
Cc1nc(CNS(=O)(=O)c2ccc3c(c2)CCCC3)cs1 | -10.2 | i | 1.02 | -0.8 | 98.8 | 0.0 | 109.8
COC(=O)c1ccc(NC(=O)CCN2CCN(Cc3ccccc3)CC2)cc1 | -7.0 | i | 0.87 | 0.2 | 101.2 | 50.0 | 91.0
CCOC(=O)c1sc(NC(=O)CSc2nc3c(c(=O)n2-c2ccc(C)cc2)SCC3)c(C(=O)OCC)c1C | -2.6 | i | 0.99 | -0.4 | 101.0 | -41.5 | 76.1
NNC(=O)c1nc(Cl)c(Cl)c(N)c1Cl | nt | i | 0.98 | nt | 93.3 | nt | nt
c1ccc(-c2noc(-c3cccnc3)n2)nc1 | 2.6 | i | 1.04 | -1.1 | 112.0 | 88.6* | 55.5*

Some of the entries so far, with two lines to a compound:
The line under a structure holds: PKD1 inh | HSV augment | HSV augment primary fold | GALR2 agonist | RGS16-Gao | Insulin prom inh | Insulin prom inh cell count
c1ccc(-c2csc3ncn4cnnc4c23)cc1
 : -1.5 | i | 0.86 | -1.4 | 96.3 | 15.6 | 103.3
CCNC(=O)NC(=O)C(C)OC(=O)CCS(=O)(=O)c1ccc(C)cc1 (stereo not drawn)
 : -5.5 | i | 0.94 | nt | 126.0 | -5.0 | 123.3
CCOC(=O)N1CCC(NC(=O)c2cccnc2SC)CC1
 : -3.2 | i | 0.91 | -0.2 | nt | 24.2 | 74.3
CC(=O)Nc1cccc(-c2nnc3c4ccccc4c(C)nn23)c1
 : -2.8 | i | 0.8 | nt | 111.2 | -40.0 | 135.0
Cc1ccc2nc(C(=O)N3CCc4c([nH]c5ccccc45)C3c3ccccn3)cn2c1 (stereo not drawn)
 : -6.3 | i | 0.87 | nt | 102.3 | -7.1 | 118.1
CCOC(=O)C1C(=O)NC(c2ccccc2)=NC1c1ccc(C(C)C)cc1 (stereo not drawn)
 : 19.4 | i | 0.91 | -3.1 | 100.0 | 44.8 | 149.2
N#Cc1ccc(/C=C/C(=O)c2ccccc2)cc1
 : nt | i | 0.69 | nt | 96.0 | nt | nt
O=c1cc(CN2CCN(S(=O)(=O)/C=C/c3ccccc3)CC2)c2ccc(O)cc2o1
 : -0.7 | i | 1.03 | 1.2 | 82.3 | -36.7 | 93.8
COC(=O)c1ccc(C(=O)Nc2ccc3nc(-c4cccnc4)[nH]c3c2)cc1
 : -4.8 | i | 0.91 | 0.6 | 102.0 | -7.9 | 91.4
Cc1cccc(-c2nc(CSCC(=O)NCc3cccs3)c(C)o2)c1
 : -10.2 | i | 0.92 | -3.4 | 99.3 | -3.6 | 62.5
Cc1nc(CNS(=O)(=O)c2ccc3c(c2)CCCC3)cs1
 : -10.2 | i | 1.02 | -0.8 | 98.8 | 0.0 | 109.8
COC(=O)c1ccc(NC(=O)CCN2CCN(Cc3ccccc3)CC2)cc1
 : -7.0 | i | 0.87 | 0.2 | 101.2 | 50.0 | 91.0
CCOC(=O)c1sc(NC(=O)CSc2nc3c(c(=O)n2-c2ccc(C)cc2)SCC3)c(C(=O)OCC)c1C
 : -2.6 | i | 0.99 | -0.4 | 101.0 | -41.5 | 76.1
NNC(=O)c1nc(Cl)c(Cl)c(N)c1Cl
 : nt | i | 0.98 | nt | 93.3 | nt | nt
